Assay outcomes: PubChem, National Center for Advancing Translational Sciences (NCATS)
Menin-MLL FL inh: qHTS Assay for Inhibitors Targeting the Menin-MLL Interaction in MLL Related Leukemias: Competition With Fluorescein Labeled MLL-derived Peptide; 290,000 tested, under 10 active; FP activity change, % at 61.4 µM; Fluorescence polarization, fluorescein-MLL peptide displacement from menin; inconclusive = falling polarisation curve, or a change in total fluorescence; inactive = total fluorescence flat and polarisation flat or rising; no compound was filed as active; the % refers to the polarisation; negative = inhibition;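 further: % of control where 0% means no effect; inhibitors lower the polarisation; unlabelled MLL peptide was the positive control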
gsp agonist: qHTS for Agonist of gsp, the Etiologic Mutation Responsible for Fibrous Dysplasia/McCune-Albright Syndrome: qHTS | gsp mutant cells, cAMP HTRF, 30 min; control for the full effect not named in the record | Potency, µM (top dose mostly 76.9 µM), inactives show top-dose activation (cAMP increase), most hits filed as activators | 340,000 tested, 0.13% active | AID 624287, 2012; active = well fitted activation curve with a large enough effect; inconclusive = small, poorly fitted or top-dose-only effect, or another doubt; inactive = no such curve, though single readings can be large or run the other way; cell line not stated here;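 further: phosphodiesterase inhibitor Ro 20-1724 added with compounds to block cAMP breakdown; potency means the concentration at half of the fitted maximal effect; nearly all actives have a fitted effect of over 60% in size; about a fifth of the inactives were tested at one dose only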
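Cells stably selected in G418 were plated at 2000/well, grown 16-24 hr, then given compounds in DMSO with the PDE inhibitor […] (300 uM solution added) for 30 min at 37C; cAMP was read by HTRF.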
TRPML1 ag: qHTS for Agonists of the Human Mucolipin Transient Receptor Potential 1 (TRPML1) | TRPML1-expressing cells, Ca2+ dye fluorescence, FDSS; host cell line not named in the record; reference of the full effect not given here | AID 624414, 2012 | Mucolipin-1 (Homo sapiens), Q9GZU1 | activation, % (concentration not given with the values) | 410,000 tested, 0.12% active; in the data active = activation above about 50%; inconclusive = about 30% to 50%; inactive = below about 30%; further: 0% is about no effect; the text of the record puts the active cut at 80%
Target sequence (Q9GZU1 whole entry, looked up): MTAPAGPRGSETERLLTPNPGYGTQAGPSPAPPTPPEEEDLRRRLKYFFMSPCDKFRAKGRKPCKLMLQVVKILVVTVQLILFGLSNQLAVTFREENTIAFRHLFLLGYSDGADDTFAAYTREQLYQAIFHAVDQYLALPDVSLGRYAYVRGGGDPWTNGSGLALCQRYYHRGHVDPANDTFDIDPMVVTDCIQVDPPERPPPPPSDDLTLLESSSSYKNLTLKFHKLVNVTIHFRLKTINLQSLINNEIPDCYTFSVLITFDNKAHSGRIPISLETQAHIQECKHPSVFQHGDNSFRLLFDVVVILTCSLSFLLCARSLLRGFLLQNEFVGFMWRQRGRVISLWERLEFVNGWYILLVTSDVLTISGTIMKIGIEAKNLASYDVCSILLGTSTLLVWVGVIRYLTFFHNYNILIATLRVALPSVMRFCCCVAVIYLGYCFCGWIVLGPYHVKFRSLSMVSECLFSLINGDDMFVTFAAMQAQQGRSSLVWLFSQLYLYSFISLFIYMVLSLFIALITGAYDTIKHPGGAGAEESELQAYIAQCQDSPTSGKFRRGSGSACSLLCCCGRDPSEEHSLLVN
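Tetracycline-induced TRPML1-DL cells are seeded and incubated overnight before loading with a no-wash Ca2+ dye and quencher. Agonist activity is taken from the 110 s fluorescence read following compound pin-transfer on an FDSS, before EC80 54-4 challenge.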
gsp antag: qHTS for Antagonists of gsp, the Etiologic Mutation Responsible for Fibrous Dysplasia/McCune-Albright Syndrome: qHTS | gsp-mutant cells, cAMP HTRF, 30 min; control for the full effect not named in the record | Potency, µM (highest dose often 76.9 µM), for the others: at the top dose activity change, negative = inhibition, most hits filed as inhibitors | 340,000 tested, 0.4% active | AID 624288, 2012; active = falling curve of any shape with a large fitted effect; inconclusive = falling curve, mostly with a smaller effect; inactive = flat or rising curve; cell line not stated here;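 further: intracellular cAMP measured with PDE inhibitor Ro 20-1724 present during compound exposure; potency means the concentration at half of the fitted maximal effect; on the % scale 0 is the no-effect control and ±100 the full control effect; nearly all actives have a fitted effect of over 65% in size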
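Measurement of cellular cAMP by homogeneous time-resolved fluorescence following a 30 min compound exposure at 37C. The PDE inhibitor […] was present throughout; the assay buffer was DPBS with 0.05% BSA and 0.005% Tween 20.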
ClpP mod: qHTS Assay for Activators of ClpP. ATP-dependent Clp protease proteolytic subunit (Bacillus subtilis (strain 168)), P80244. purified B. subtilis ClpP, FRET peptide cleavage, 20 min. Potency, µM (highest dose often 57.5 µM), inactives show at the highest dose activity change, negative = active. 340,000 tested, 1.9% active. AID 651965, 2013; active = well fitted falling curve with a large enough effect; inconclusive = small, poorly fitted or top-dose-only effect; inactive = no such curve, though single readings can be large or run the other way; further: potency means the concentration at half of the fitted maximal effect; the source files actives as falling curves though it sought activators and does not explain the sign; nearly all actives have a fitted effect of over 65% in size; many hits overshoot -100%
Target sequence (P80244 whole entry, looked up): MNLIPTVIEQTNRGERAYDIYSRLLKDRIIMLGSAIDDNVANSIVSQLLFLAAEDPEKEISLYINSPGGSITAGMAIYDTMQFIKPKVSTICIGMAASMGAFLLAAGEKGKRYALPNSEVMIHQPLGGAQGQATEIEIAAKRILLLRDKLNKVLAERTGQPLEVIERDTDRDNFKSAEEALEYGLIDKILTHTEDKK
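Purified B. subtilis ClpP, 10 microg/mL final in Tris/HCl pH8 with KCl, BSA, glycerol and Tween-20, cleaved an Abz/nitrotyrosine-quenched decapeptide. Fluorescence (ex 320, em 430) was read at 0 and 20 min at room temperature. Delta was normalized to 5.8 microM ADEP and DMSO/no-enzyme controls.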
TRPML1 inh: qHTS for Inhibitors of the Human Mucolipin Transient Receptor Potential 1 (TRPML1). TRPML1-inducible cells, Ca2+ dye fluorescence, FDSS; active compounds read low; inhibition of EC80 agonist-evoked calcium signal. activity change, negative = inhibition, % (test concentration not listed). 390,000 tested, 0.02% active; in the data active means activity change below about -50%; inconclusive means about -30% to -50%; inactive means above about -30%;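 further: stimulus is agonist 54-4 at its EC80 concentration; on the % scale 0 is the no-effect control and ±100 the full control effect; compound concentration not given in the record; the text of the record puts the active cut at -80%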
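TRPML1-DL cells, Tet-induced overnight (~16 h, 37 °C) at 1,500 cells/well, were loaded with Ca8 no-wash dye plus quencher for 45-90 min at room temperature. Compounds were pinned during FDSS kinetic reading; agonist 54-4 at EC80 (4 uM final) then added.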
Active calls of the source: *; ? = inconclusive; . = no result given; & = joins results of further samples; [ ] = dose if it differs, or a comment. No enrichment for hits; 2.1% or so of the library scored in one or more.

SMILES,Menin-MLL FL inh,gsp agonist,TRPML1 ag,gsp antag,ClpP mod,TRPML1 inh
O=C1c2ccccc2/C(=C\c2ccc3[nH]ccc3c2)N1c1ccccc1,.,1%,0.4,0%,-28%,28
CN(Cc1ccccc1)C(=O)COC(=O)c1ccc2c(c1)OCO2,-1.9,-2%,-0.7,13%,-25%,-4
Cc1cccc(NC(=S)NC(=O)c2ccc(Br)o2)c1C,-3.2,?,0.6,-5%,0.8%,11
O=C(COC(=O)/C=C/c1ccc(Cl)cc1Cl)NCC1CCCO1 (stereo unspecified),.,-10%,2.8,-17%,-2.2%,-2
O=C(c1cc2ccccc2oc1=O)N1CCN(c2ncccn2)CC1,3.9,-6%,-0.4,-1%,-6.9%,-1
COCCc1nn2c(=O)cc(COC(=O)c3ccccc3C)nc2s1,.,.,-0.6,.,-5.3%,7
Cc1cccc(N2CCN(C(=O)C3CCN(c4ncnc5c4nc4n5CCCCC4)CC3)CC2C)c1 (stereo unspecified),2.3,26%,1.4&3.3,40µM*,0.6%,10&-22
COc1ccc(NC(=O)c2ccc(-n3nc(C)cc3C)cc2)cc1OC,-2.0,18%,-0.1,-6%,-2.3%,-13
CC(C)C[C@@H](CNCC(=O)[C@H](Cc1ccccc1)NC(=O)c1[nH]cnc1C(=O)N[C@@H](C)CN)NC(=O)c1nc[nH]c1C(=O)N[C@@H](C)C(=O)O,.,.,-0.3,4%,-0.4%,26
CC(=O)O[C@@H]1[C@H]2[C@@H](C[C@@H](C)[C@@H]3CCC(=O)[C@@]13C)OC(=O)[C@@H]2C,0.4,.,0.3,10%,-1.1%,17
C(=Nn1cnnc1)c1ccc2c(c1)CCC2,.,-1%,-0.6,.,-1.6%,-1
O=C(O)c1ccc(-c2nc3scc(-c4ccccc4)c3c(=O)[nH]2)cc1,11,-40%[inhibitor],0.1,-3%,-11%,7
Cc1cccc(C(=O)Nc2cc(Cl)ccc2-n2cncn2)c1[N+](=O)[O-],.,-4%[15.4 µM],-0.5,-8%,.,-4
O=C1C(Cc2ccc(F)cc2)SC(=Nc2ccccc2)N1c1ccccc1 (stereo unspecified),0.2,5%,4.1,-21%,1.0%,35
Cc1onc(-c2ccccc2Cl)c1C(=O)NCCn1c(C)cc2ccccc21,-20,12%,3.3,-1%,-0.4%,4
CC(=O)c1cc2c(cc1N/C(=N/S(=O)(=O)c1ccc(F)cc1)c1ccccc1)OCO2,.,.,-0.3,.,-14%,-6
COc1ccc(-c2nc3ccc(C)cn3c2Cc2ccc(C)cc2)cc1OC,.,.,0.8,.,4.6%,-3
O=C(CNC(=O)c1ccc(N2C(=O)c3ccccc3C2=O)cc1)OCC(=O)c1cccc2ccccc12,.,?,-0.2,34%[activator],-5.3%,24
O=C(NC(=S)Nc1ccc(Cl)cc1)c1cncc(Br)c1,.,2%,3.9,-16%,.,-13
CC1CCCCN1S(=O)(=O)c1ccc(C(=O)N2CCOCC2)cc1 (stereo unspecified),-12,21%,1.0,7%,.,-3

SMILES,Menin-MLL FL inh,gsp agonist,TRPML1 ag,gsp antag,ClpP mod,TRPML1 inh
CCN(CC)c1ccc(C2C(C(N)=O)=C(C)Nc3nc(SCc4ccccc4)nn32)cc1 (stereo unspecified),.,.,-0.4,.,-3.3%,36
CC1=C(C(=O)N2CCOCC2)CC(CC(=O)NCc2cccs2)C(=O)N1CCCN1CCCC1=O (stereo unspecified),.,.,-0.4,.,-1.0%,-15
CN(C(=O)c1ccc(=O)[nH]c1)C1(C(=O)NC2CCCCC2)CCCCC1,-7.0,?,-0.2,7%,-2.4%,-5
CCN(CC)S(=O)(=O)c1ccc(N2CCOCC2)c(NC(=O)c2cc(C)cc(C)c2)c1,1.6,20%[15.4 µM],1.1,-16%,-1.7%,8
CCc1cc(=O)oc2cc(C)c(CN3CCCCC3)c(O)c12,3.1,?,0.5,-5%,5.3%,13
CC(C)N1CCN(Cc2ccc(Sc3nncn3C)o2)CC1CCO (stereo unspecified),3.1,?,0.1,11%,-5.1%,6
CCN(CC)C(=O)CSc1nc2sc(C)c(C)c2c(=O)[nH]1,8.4,23%,-0.5,-9%,-3.7%,2
CCCc1sc(N/N=C/c2ccccn2)nc1-c1ccc(F)cc1,4.1,12%,0.9,-6%,-1.8%,1
Cn1c(=O)oc2cc(S(=O)(=O)NCCc3ccccc3)ccc21,1.4,1%,1.1,0%,-3.3%,5
COC1CCN(C(=O)c2ccc(OC3CCN(CCc4ccccc4)CC3)cc2)CC1,9.2,-6%[15.4 µM],0.7,9%,.,11
CCOc1ccc(OCCC(=O)OCC(=O)Nc2ccc(C)c(S(=O)(=O)N3CCCCC3)c2)cc1,.,-46%[inhibitor],0.4,3%,?,-3
CCN(CC)c1ccc(C=C2C(=O)OC3(CCCCC3)OC2=O)cc1,?,-19%,0.1,-6%,.,16
CCC(C(=O)Nc1cc(OC)ccc1OC)n1c(C)c2cnn(-c3ccccc3)c(=O)c2c1C (stereo unspecified),.,.,0.3,.,-4.6%,-11
Cc1cc(N2CCCC2)ccc1NC(=O)COc1cccc(C(F)(F)F)c1,.,-10%,-0.2,-12%,0.4%,-4
COc1ccc(Br)cc1CN(C)C(C)C(=O)Nc1cc([N+](=O)[O-])ccc1OC (stereo unspecified),-0.8,-7%[15.4 µM],1.5,?,1.1%,2
O=C1CC2(CCN(C(=O)c3c(F)cccc3Cl)CC2)Oc2ccccc21,.,33%[15.4 µM],0.3,-7%,.,4
COc1cccc(C2=CC(=O)C(C(C)(C)C)N2C(C)(C)C)c1 (stereo unspecified),.,.,0.7,-13%,2.6%,49
CCCN(c1ccccc1F)S(=O)(=O)c1c[nH]c(C(=O)OC)c1,0.2,?,-0.3,-6%,1.7%,21
Fc1ccc(NC(=S)N2CCCCC2)cc1,-3.9,24%,-0.6,12%,0.4%,6
COc1cc(OC)c2c3c(c(C4CCCCC4)nc2c1)CCCC3,.,.,-0.4,-1%,?,-6

SMILES,Menin-MLL FL inh,gsp agonist,TRPML1 ag,gsp antag,ClpP mod,TRPML1 inh
CCOc1cccc(CNc2nnnn2C)c1,-1.6,-3%[15.4 µM],-0.3,4%,0.9%,5
Cn1cc(CN2CCC(C(O)c3cccs3)CC2)c(-c2ccccc2F)n1 (stereo unspecified),-6.8,-11%[15.4 µM],0.2,8%,.,-8
Cc1c(NC(=O)C(C)SC(=S)N2CCCC2)c(=O)n(-c2ccccc2)n1C (stereo unspecified),.,6%,-0.5,-6%,-0.7%,6
Cc1nc(Nc2ccc(C(=O)O)cc2)sc1-c1ccccc1,-3.4,-2%,1.5,?,.,5
COc1ccc(N2CCN(C(=O)CN3C(=O)NC(c4ccc(OC)cc4)(c4ccc(OC)cc4)C3=O)CC2)cc1,.,-9%,0.7,-5%,-4.1%,27
O=C(COC(=O)c1ccc(C(F)(F)F)cc1)Nc1cccc(S(=O)(=O)NC2=NCCCCC2)c1,.,1%,3.8,8%,1.5%,14
Cc1cc(C)c(C#N)c(SCc2ccccc2F)n1,-1.7,-16%[15.4 µM],3.6,4%,.,-1
CC(=O)c1ccc(NC(=O)CSc2nnc3ccc(-c4ccc(F)cc4)nn23)cc1,.,.,-0.1,.,0.8%,8
Cc1ccc(Cn2ccc(=O)c(OCc3c(Cl)cccc3Cl)c2C)cc1,?,-13%,1.7,-9%,-2.0%,19
COc1ccc(S(=O)(=O)N2CCN(C(=O)CCSc3ccccc3)CC2)cc1,.,7%,-0.2,-17%,2.5%,-5
CCOCc1cn(CC(=O)c2ccc([N+](=O)[O-])cc2)c(C)nc1=N,3.7,?,-0.7,15%,-0.2%,0
O=C(Nc1ccc2c(c1)OCCO2)N1CCN(Cc2ccccc2)CC1,-1.0,11%[15.4 µM],-1.2,-26%,.,5
O=C(Nc1ccc2c(c1)OCCO2)c1ccccc1,-0.9,13%[15.4 µM],-1.4,4%,-1.2%,4
CC1(C(=O)NCCCNc2ncc(C(F)(F)F)cc2Cl)C=CCN1C(=O)c1ccccc1 (stereo unspecified),4.8,.,0.1,-3%,-1.3%,32
Cc1ccc(NC(=O)COC(=O)CNC(=O)c2cccc([N+](=O)[O-])c2)cc1S(=O)(=O)N1CCCCCC1,6.5,-3%[15.4 µM],0.7,-38%,0.4%,40
N#C/C(=C\c1ccc2c(c1)OCCO2)C(=O)Nc1ccc(C(=O)O)cc1,0.7,-83%[inhibitor],1.6,-14%,0.7%,9
CN(CC1COc2ccccc2O1)C(=O)c1cccc(S(=O)(=O)N2CCCC2)c1 (stereo unspecified),.,-5%,1.5,5%,-4.1%,-14
O=C(c1ccc2c(c1)N(Cc1ccccc1F)C(=O)c1ccccc1S2(=O)=O)N1CCCC1,.,-13%,3.9&0.2,-6%,0.7%&-1.0%,23&2
COc1ccc(Cl)cc1NC(=O)Nc1ccccc1SC,1.8,-3%,0.8,-1%,1.5%,-6
COCCCn1c(=O)c2sccc2n(Cc2cc(C(=O)OC)ccc2OC)c1=O,2.1,2%,1.1,-14%,1.0%,22

SMILES,Menin-MLL FL inh,gsp agonist,TRPML1 ag,gsp antag,ClpP mod,TRPML1 inh
Cc1ccc2nc(-c3c[nH]c4ccccc34)c(Nc3ccccc3)n2c1,.,.,0.0,.,4.6%,-5
Cc1nn(C)c(Cl)c1C(=O)NCC(=O)NCc1ccccc1,-1.1,6%[15.4 µM],1.4,6%,-1.2%,2
COc1cccc(C(NC(C)=O)c2nc(-c3cccnc3)cs2)c1 (stereo unspecified),.,.,0.1,.,-0.3%,-2
C=CCNC(=S)Nc1ccc(N(C)C)cc1,0.8,-33%[inhibitor],-0.7,?,.,-4
CCOc1ccc(NC(=O)c2ccc(NS(=O)(=O)c3cccs3)cc2)cc1,-2.0,-4%[15.4 µM],0.9,-19%,-3.4%,14
CC1(C)Cc2c(sc3c2C2=NCCN2C=N3)CO1,4.8,?,-0.4,17%,-2.7%,1
O=S(=O)(C/C(=C/CO)S(=O)(=O)c1ccccc1)c1ccccc1,0.9,-12%,0.8,14%,0.9%,4
CCOc1ccc(CNC(=O)CCS(=O)(=O)c2ccc3c(c2)oc(=O)n3C)cc1,.,0%,-0.2&-0.6,3%,-2.0%&1.0%,3&-10
